2A StopGo = FMDV 2A StopGo reporter, luciferase signal. human cells with a luciferase reporter of 2A StopGo recoding; control for the full effect not named in the record. Potency, µM (series often up to 57.9 µM), without a hit: at the top dose signal change, negative = less light. actives 1.2% (n = 410,000); active = well fitted falling curve with a large enough effect; inconclusive = small, poorly fitted or top-dose-only effect; inactive = no such curve, though single readings can be large or run the other way; tested in HEK293T cells; note: % is set by controls: 0 for no effect and ±100 for the full control effect; nearly all actives have a fitted effect of over 45% in size; luciferase light after 4 h
SARS PLpro yeast = blocks SARS-CoV papain-like protease in a yeast assay; actives 0.19% (n = 330,000); S. cerevisiae expressing SARS-CoV PLpro, growth rescue; control for the full effect not named in the record; Potency, µM (doses to about 32.9 µM), for the others: at the highest dose activity, positive = growth rescue; active means well fitted rising curve with a large enough effect; inconclusive means small, poorly fitted or top-dose-only effect; inactive means no such curve, though single readings can be large or run the other way; note: 0% is about no effect; nearly all actives have a fitted effect of over 55% in size; growth read by luminescence after 48 h
MARV entry inh = blocks Marburg virus binding to or entry into cells | Marburg virus pseudotyped entry inhibition, cell reporter; control for the full effect not named in the record; about a third of the inactives were read at about 46 µM | Potency, µM (series often up to 37.8 µM), for inactives: top-dose activity change, negative = inhibition, usual class: inhibitors | actives 1.8% (n = 300,000) | AID 540276; active = well fitted inhibition curve with a large enough effect; inconclusive = small, poorly fitted or top-dose-only effect, or effect the other way; inactive = flat fitted curve, though single readings scatter; tested in HEK293 cells; about a fifth of its hits are not listed in these tables; note: % is set by controls: 0 for no effect and ±100 for the full control effect; luciferase read-out
Lassa entry inh = blocks Lassa virus binding to or entry into cells; actives 1.2% (n = 300,000); Lassa virus pseudotype entry inhibition, cell reporter; control for the full effect not named in the record; Potency, µM (top dose mostly 37.9 µM), for inactives: at the highest dose activity change, negative = inhibition, hits mostly inhibitors; active means well fitted inhibition curve with a large enough effect; inconclusive means small, poorly fitted or top-dose-only effect, or effect the other way; inactive means flat fitted curve, though single readings scatter; tested in HEK293 cells; note: % is set by controls: 0 for no effect and ±100 for the full control effect; nearly all actives have a fitted effect of over 50% in size; luciferase read-out
Cruzain noTriton = inhibitors of Trypanosoma cruzi cruzain without detergent; P25779; purified cruzain, Z-FR-AMC fluorescence, no detergent; Potency, µM, for the others: max response, negative = inhibition, hits mostly inhibitors; actives 2.3% (n = 200,000); AID 1476;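 note: plate controls were enzyme without inhibitor for no effect and buffer without enzyme for full effect; nearly all actives have a fitted effect of over 40% in size; top concentration of the series not given in the record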
Target sequence (P25779 123-467 limits assumed): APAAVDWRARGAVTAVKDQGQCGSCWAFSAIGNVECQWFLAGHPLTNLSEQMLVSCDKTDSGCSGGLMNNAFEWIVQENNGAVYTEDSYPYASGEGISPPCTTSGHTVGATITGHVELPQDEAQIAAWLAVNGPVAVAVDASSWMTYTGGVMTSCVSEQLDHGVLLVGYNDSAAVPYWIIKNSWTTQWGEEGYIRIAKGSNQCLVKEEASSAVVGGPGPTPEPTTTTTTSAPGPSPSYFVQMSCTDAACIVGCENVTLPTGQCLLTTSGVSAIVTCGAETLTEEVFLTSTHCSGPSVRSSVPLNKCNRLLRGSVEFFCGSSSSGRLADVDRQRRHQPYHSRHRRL
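Purified cruzain at 1.5 nM, pre-incubated 15 min with compound at room temperature in 100 mM sodium acetate pH 5.5, 5 mM DTT, 0.00005% Triton X-100. Reaction started with 2 uM Z-FR-AMC; AMC fluorescence increase over 60 s gives rate.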
NS1 inh = inhibitors of influenza NS1 protein function | S. cerevisiae slowed by influenza A NS1, growth recovery by OD600 | AID 2326 | actives 0.4% (n = 270,000) | Potency, µM (series often up to 46.1 µM), for inactives: at the highest dose activity, positive = more growth; active means well fitted rising curve with a large enough effect; inconclusive means small, poorly fitted or top-dose-only effect; inactive means no such curve, though single readings can be large or run the other way; note: nearly all actives have a fitted effect of over 50% in size
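Compounds were scored for reversing the slow growth caused by influenza A NS1 in S. cerevisiae, measured by optical density at 600 nm. Assay medium contained 2% galactose at pH 6.0; NS1-free yeast of the same strain were the positive control.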
Cruzain inh Det = blocks cruzain activity in presence of Triton detergent | actives 0.43% (n = 200,000) | Potency, µM, without a hit: max response, negative = inhibition, actives largely listed as inhibitors | purified cruzain, Z-FR-AMC fluorescence, 0.01% Triton | P25779;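 note: plate controls were neutral wells for no effect and buffer without enzyme for full effect; nearly all actives have a fitted effect of over 40% in size; top concentration of the series not given in the record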
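In this qHTS format, compounds are incubated with 1.5 nM cruzain for 15 min at room temperature before 2 uM Z-FR-AMC is added. Release of AMC is followed at 360/450 nm, and progress is taken as the 60 s fluorescence difference.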
RE007 growth inh = less growth of the S. pombe RE007 Vpr strain. Potency, µM (top dose mostly 92.2 µM), for inactives: at the highest dose activity change, negative = less growth. S. pombe RE007 Vpr strain, BacTiter-Glo ATP luminescence, 24 h; control for the full effect not named in the record. AID 651644. actives 0.21% (n = 360,000); active = well fitted falling curve with a large enough effect; inconclusive = small, poorly fitted or top-dose-only effect; inactive = no such curve, though single readings can be large or run the other way;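 note: % is set by controls: 0 for no effect and ±100 for the full control effect; nearly all actives have a fitted effect of over 50% in size; the assay follows cell death caused by Vpr and the record does not say whether a fall means rescue or toxicity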
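Fission yeast strain RE007, carrying one chromosomally integrated HIV-1 vpr copy, was seeded at OD 0.01 in PMG+AL medium with 23 nL pinned compound. After 24 h at 30 °C and 99% humidity, viability was read by BacTiter-Glo luminescence.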
* hit, by the source's call; ? = inconclusive; . = no result given; & = joins results of further samples; [ ] = another dose, or the depositor's remark. Unless noted, calls come from the whole dose curve; as a rule, active = well fitted curve in the direction sought with a large enough effect; inconclusive = small, poorly fitted or top-dose-only effect, or another doubt; inactive = no such curve, though single readings can be large; an effect the other way counts as inactive or inconclusive. Potency is the fitted concentration of half-maximal effect.

Below each compound – 2A StopGo | SARS PLpro yeast | MARV entry inh | Lassa entry inh | Cruzain noTriton | NS1 inh | Cruzain inh Det | RE007 growth inh
CCc1cccc(OCCCCN(CC)CC)c1
    -20% | 1% | 12% | -9% | 0% | 1% | 5.1% | -5%
Cc1ccn2c(=O)c(C(=O)NCCCN3CCCCC3C)c(O)nc2c1 (stereo unspecified)
    -5%&14% | -3% | 25%&-1%[46.1 µM] | 3%[46.1 µM] | -7% | -8% | -0.4% | -8%
COc1cccc(CNC(=S)NC2CC2)c1
    -4% | 0% | 18%[46.1 µM] | 16% | . | 0% | . | -4%
CCCCCN1CC(=O)N2[C@@H](Cc3c([nH]c4ccccc34)C2(C)C)C1=O
    -8% | 2% | 5%[46.1 µM] | 13%[46.1 µM] | . | -1% | . | 10%
Cc1cc(C)c2c(CC(=O)Nc3ccc(S(=O)(=O)Nc4nc(C)cc(C)n4)cc3)coc2c1
    57%[activator] | . | 0%[46.1 µM] | 5%[46.1 µM] | 3% | . | -10% | .
N#Cc1ccc(CSc2nnc(NC(=O)C3CC(=O)N(c4ccc5c(c4)OCCO5)C3)s2)cc1 (stereo unspecified)
    7% | -11% | -5%[46.1 µM] | -2% | 0% | 20% | -5.3% | -1%
CCOC(=O)N/N=C\c1cccc(OC)c1OC/C=C/c1ccccc1
    -16% | -2% | ? | ? | . | -29% | . | 24%
CCOc1ccc(CCNC(=O)Cn2nc(CC)n3c(cc4ccccc43)c2=O)cc1
    -18% | . | ? | . | -1% | . | 0.0% | .
COc1cccc(C(=O)N(CN2CCCC2=O)c2cc(C)on2)c1
    -10% | 6% | 6% | 12% | -9% | 0% | 0.3% | 3%
Cn1ncc([N+](=O)[O-])c1C(=O)Nc1ccc(-c2nc3ccccc3[nH]2)cc1
    . | 1% | 0% | ? | -12% | -20% | 0.9% | -20%
COc1ccc(-c2nn(C)c(=O)c3ccccc23)cc1NC(=O)Cn1nc(-c2ccccc2)c2ccccc2c1=O
    -1% | 11% | -11% | 1% | ? | ? | -8.6% | -2%
COc1ccc(S(=O)(=O)Nc2ccc3c(c2)OCO3)cc1
    . | 6% | 0% | 2% | 2% | -8% | 2.4% | -19%
CCc1ccc(NC(=O)C(CC)n2c(=O)c(C(F)(F)F)nc3ccccc32)cc1 (stereo unspecified)
    -22% | . | . | 16%[46.1 µM] | 0% | . | -0.2% | .
COc1ccccc1N1CCN(C2CCCN(C(=O)c3oc(C)cc3C)C2)CC1 (stereo unspecified)
    ? | -4% | -14% | 19% | . | -1% | . | 5%
CCc1c(O)nc(SC2CC(=O)N(c3ccc(F)c(Cl)c3)C2=O)[nH]c1=O (stereo unspecified)
    -3% | -11% | 11%[46.1 µM] | 18%[46.1 µM] | . | 8% | . | -3%

Next section:
Below each compound – 2A StopGo | SARS PLpro yeast | MARV entry inh | Lassa entry inh | Cruzain noTriton | NS1 inh | Cruzain inh Det | RE007 growth inh
COc1ccc2[nH]cc(C(=O)NCCc3ccccc3)c(=O)c2c1
    -10% | -10% | ? | ? | . | 29% | . | 5%
Nc1ccc(CCc2ccc(N)cc2)cc1
    0% | . | 17%[46.1 µM] | 6% | . | . | . | -9%
O=c1[nH]c(/C(=N\O)c2ccccc2)no1
    -10% | -3% | -19% | 0% | -3% | -8% | -3.0% | -11%
CCN(CC(=O)Nc1ccc(NC(C)=O)cc1)C(=O)CCCOc1ccc(C(C)(C)C)cc1
    ? | 4% | ? | ? | . | . | . | -6%
O=C(COc1ccc(S(=O)(=O)NC2CCCCC2)cc1)NC1CC1
    17% | -3% | 3%[46.1 µM] | 15%[46.1 µM] | . | 4% | . | 13%
COc1cc(C(=O)N2CCN(c3ccccc3)CC2)c2ccccc2n1
    -14% | . | ? | ? | . | . | . | 5%
CC1=N/C(=C\c2ccc(OC(C)C)cc2)C(=O)N1c1ccc(C(=O)O)cc1
    -15% | ? | ? | ? | -2% | 6% | -13% | 4%
CCc1ccc(NC(=O)C2=CC(c3ccc(OC)c(OC)c3)=NS(=O)(=O)N2C)cc1
    ? | 3% | . | . | . | ? | . | -13%
COc1cc(C(=O)NCC(c2cccnc2)N2CCN(c3ccccc3)CC2)cc(OC)c1OC (stereo unspecified)
    -26% | 1% | -1% | . | 12% | -12% | -3.1% | -11%
O=C(COC(=O)c1ccc(Cl)nc1)Nc1cccnc1Cl
    -25% | 1% | 8% | 13% | . | . | . | 11%
CCN(CC)S(=O)(=O)c1ccc(NC(=O)Cc2cccs2)cc1
    16% | 0% | -34%[46.1 µM] | ? | . | . | . | 2%
CC(C)NC(=S)N1CCN(C(c2ccccc2)c2ccccc2)CC1
    -17% | -3% | ? | -29%[46.1 µM] | 15% | -15% | -3.5% | 9%
CCOC(=O)Cc1csc(NC(=O)C(C)Oc2ccc3c(C)cc(=O)oc3c2)n1 (stereo unspecified)
    0% | -1% | . | . | . | -1% | . | 11%
COc1ccc(-c2onc(C)c2C)cc1S(=O)(=O)N1CCN(c2ccc(Cl)cc2)CC1
    0% | . | . | -8%[46.1 µM] | -5% | . | 1.1% | .
Cc1nc(-c2ccccc2)nc2sc(C(=O)c3ccc(F)cc3)c(N)c12
    -1% | 0% | . | . | . | 2% | . | 18%

Continuation:
Below each compound – 2A StopGo | SARS PLpro yeast | MARV entry inh | Lassa entry inh | Cruzain noTriton | NS1 inh | Cruzain inh Det | RE007 growth inh
CCOC(=O)c1c(-c2ccccc2)csc1NC(=O)CSc1nc(N)cc(N)n1
    18µM* | 5% | ? | -2% | -1% | ? | -5.9% | .
CCN(CC)CCNC(=S)Nc1ccc(F)cc1
    -1% | 1% | -18%[46.1 µM] | -4%[46.1 µM] | . | 4% | . | 10%
CN(c1ccccc1)S(=O)(=O)c1cc(Cl)ccc1Cl
    8% | -2% | ? | 5%[46.1 µM] | . | . | . | -7%
O=C(CCc1ccccc1)Nc1nc2n(n1)C(c1ccc(Cl)cc1)CC(=O)N2 (stereo unspecified)
    -14% | -2% | -2% | 7% | 3% | -6% | 4.6% | 13%
COc1cccc(CNC(=O)CSc2nc3ccccc3nc2Cc2ccccc2)c1
    -7% | . | . | -18%[46.1 µM] | 2% | . | 1.3% | .
CCOc1ccc(N2CC(C(=O)NCCc3ccc(OC)c(OC)c3)CC2=O)cc1 (stereo unspecified)
    -20% | 16% | 9%&9% | -10% | -1% | -3% | -0.5% | 5%
Cc1c(-c2nc(-c3cccnc3)no2)cccc1[N+](=O)[O-]
    35%[activator] | 1% | ? | -5% | . | -2% | . | -20%
O=C(Nc1cccc(-n2cnnn2)c1)c1cccs1
    -19% | 13% | . | . | . | 20% | . | -10%
COc1ccc(CNCCNC(=O)c2cccs2)c(OC)c1OC
    -6% | 0% | -13%[46.1 µM] | -9% | . | -3% | . | 9%
COc1cccc(C(=O)NC(=O)Nc2nc(C)cc(C(F)(F)F)n2)c1
    -5% | 1% | . | . | . | -7% | . | 7%
CCOc1ccc(CCNC(=O)C2CC(=O)N(c3ccc4c(c3)OCCO4)C2)cc1OCC (stereo unspecified)
    -16% | 0% | -6% | -20% | . | . | . | 13%
COc1ccc(CNC(=O)COc2ccc(Br)c(C)c2)cc1
    1% | 10% | -14%[46.1 µM] | ? | . | -34% | . | 1%
COc1ccc(N2CCN(C3CCCN(C(=O)c4ccoc4)C3)CC2)cc1 (stereo unspecified)
    -7% | 0% | ? | 8% | . | -8% | . | 9%
CCCCC1CN2CCc3c([nH]c4ccccc34)C2(C)C1 (stereo unspecified)
    -14% | 1% | ? | 1% | . | 11% | . | -12%
CCOCc1cc(C2NC(=O)NC(C)=C2C(=O)OCC)ccc1OC (stereo unspecified)
    1% | 2% | -14% | 0% | 7% | 6% | 3.1% | -2%
Cc1cc(NC(=O)CSc2ccc(-c3cccc([N+](=O)[O-])c3)nn2)no1
    0% | 1% | -22% | 15% | . | -1% | . | 8%
CSc1n[nH]c(=O)n1C1CCCCC1
    -1% | -1% | . | . | . | 4% | . | 12%
COc1cc2nc(N(CCN(C)C)C(=O)c3ccc(S(=O)(=O)N(C)CC4CCCO4)cc3)sc2cc1OC (stereo unspecified)
    -11% | 2% | -22% | -1% | . | -8% | . | -8%

Gathered by group, those above with an aryl thioether with sulfur outside any ring (6)
Below each compound – 2A StopGo | SARS PLpro yeast | MARV entry inh | Lassa entry inh | Cruzain noTriton | NS1 inh | Cruzain inh Det | RE007 growth inh
N#Cc1ccc(CSc2nnc(NC(=O)C3CC(=O)N(c4ccc5c(c4)OCCO5)C3)s2)cc1 (stereo unspecified)
    7% | -11% | -5%[46.1 µM] | -2% | 0% | 20% | -5.3% | -1%
CCc1c(O)nc(SC2CC(=O)N(c3ccc(F)c(Cl)c3)C2=O)[nH]c1=O (stereo unspecified)
    -3% | -11% | 11%[46.1 µM] | 18%[46.1 µM] | . | 8% | . | -3%
CCOC(=O)c1c(-c2ccccc2)csc1NC(=O)CSc1nc(N)cc(N)n1
    18µM* | 5% | ? | -2% | -1% | ? | -5.9% | .
COc1cccc(CNC(=O)CSc2nc3ccccc3nc2Cc2ccccc2)c1
    -7% | . | . | -18%[46.1 µM] | 2% | . | 1.3% | .
Cc1cc(NC(=O)CSc2ccc(-c3cccc([N+](=O)[O-])c3)nn2)no1
    0% | 1% | -22% | 15% | . | -1% | . | 8%
CSc1n[nH]c(=O)n1C1CCCCC1
    -1% | -1% | . | . | . | 4% | . | 12%

From PubChem
